Source: PubChem (National Center for Advancing Translational Sciences (NCATS))
HPGD block – HPGD (human) dehydrogenase inhibition. P15428. purified HPGD, NADH fluorescence kinetic, PGE2 substrate. Potency, µM, for inactives: at the highest dose activity change, negative = inhibition, actives largely listed as inhibitors. hit rate 4.3% among 150,000. AID 894; active = well fitted inhibition curve with a large enough effect (not every such curve was filed as active); inconclusive = small, poorly fitted or top-dose-only effect, or another doubt; inactive = no such curve, though single readings can be large or run the other way;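 also: top concentration of the series not given in the record; plate controls included wells without enzyme; inactives centre near -10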
Target sequence (P15428 whole entry, looked up): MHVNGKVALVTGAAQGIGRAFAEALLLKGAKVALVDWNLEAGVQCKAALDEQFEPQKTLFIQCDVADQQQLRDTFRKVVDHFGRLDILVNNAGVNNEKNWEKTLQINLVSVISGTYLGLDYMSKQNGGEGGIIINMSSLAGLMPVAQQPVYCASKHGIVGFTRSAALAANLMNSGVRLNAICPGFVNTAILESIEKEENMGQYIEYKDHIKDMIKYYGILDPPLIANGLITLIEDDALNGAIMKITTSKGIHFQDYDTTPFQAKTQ
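NADH formation kinetics: reaction with 30 uM PGE2 and 1 mM NAD+ (final), 20 nM enzyme, Tris-HCl pH 8 with Tween 20, after 15 min compound preincubation at room temperature. Fluorescence change, last versus first of five reads.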
* hit, by the source's call; ? = inconclusive; & = joins results of further samples. % is scaled to controls: 0 for no effect and ±100 for the full control effect; potency is read from the fitted curve at half-maximal effect. Some of the compounds tested (hit frequency here may not be typical).

smiles	HPGD block
C=CCOn1c(C)c(C(C)=O)c2c3no[n+]([O-])c3ccc21	-10%
O=C(NCc1ccco1)/C(=C/c1ccco1)NC(=O)c1ccc(Br)o1	-12%
Cc1ccc(NC(=O)N(Cc2cccnc2)Cc2ccco2)cc1C	-12%
Cc1cc(N2CCN(S(=O)(=O)c3ccc(C)c(C)c3)CC2)c2ccccc2n1	-6%
COC(=O)CSc1nnc(-c2ccc(S(=O)(=O)N3CCC(C)CC3)cc2)o1	-3%
CCOc1ccccc1NC(=S)NC(=O)CCCOc1ccc(Cl)cc1Cl	-23%
N[C@@H](CCCP(=O)(O)O)C(=O)O	-12%
Cn1c(-c2ccc(Cl)cc2)ccc(C#N)c1=O	?
CC(C)CNC(=O)COC(=O)c1cc(Cl)cc(Cl)c1N	?
Cn1cccc1-c1nc2ccc(NC(=O)c3cccs3)cc2[nH]1	-21%
O=C(N/N=C/c1cccc([N+](=O)[O-])c1)c1ccc(COc2ccccc2-c2ccccc2)cc1	-12%
O=C(CSc1ccc(Cl)cc1)N1CCN(c2ncc(C(F)(F)F)cc2Cl)CC1	-13%
CC(=O)NCC(=O)N(c1c(C)n(C)n(-c2ccccc2)c1=O)C1(C(=O)NC2CCCC2)CCCCC1	3%
OC(CNCCc1ccc(C(F)(F)F)cc1)COc1cccc2ccccc12 (centres undefined)	-17%
CC1CCCN(c2nc3c(c(=O)n(C)c(=O)n3C)n2CCSc2nc3ccccc3s2)C1 (centres undefined)	-24%
CCOC(=O)CSc1nnc(CSc2nc3sc4c(c3c(=O)[nH]2)CCC4)n1-c1ccccc1	8.9µM*
N=c1n(CCO)c2ccccc2n1Cc1ccccc1Cl	5%
CCOC(=O)c1cnc(SCC(=O)c2ccc(Cl)cc2)nc1N	-8%
Cc1ccc(NS(=O)(=O)c2cc(OCC(N)=O)c(C)cc2Cl)cc1	-8%
CCc1ccc2[nH]c(=O)c(CN(Cc3ccco3)S(=O)(=O)c3ccc4c(c3)OCCO4)cc2c1	?
Cc1cccc(N(CC(=O)NCc2ccc3c(c2)OCO3)C(=O)CCC(=O)Nc2ccccn2)c1C	-15%
O=C(NCCc1ccc(Cl)cc1)C1CCN(S(=O)(=O)c2cccc3nonc23)CC1	-13%
O=C(NCCCCCNC(=O)c1ccco1)c1ccco1	-14%
O=C(Nc1ccc2ncccc2c1)Nc1ccc2ncccc2c1	-7%
Cc1nn(-c2ccccc2)c(N2CCCC2)c1/C=N/O	-4%
CNC(=O)[C@H]1O[C@@H](n2cnc3c(NCc4ccc(N)cc4)ncnc32)[C@H](O)[C@H]1O	2%
Cc1cccc(N(C(=O)CNC(=O)c2ccco2)C(C(=O)NC2CCCC2)c2cccnc2)c1 (centres undefined)	-4%
CCOC(=O)c1cc(C#N)c(Oc2ccccc2OC)nc1-c1ccccc1	-22%
Cc1ccc(NC(=O)COC(=O)/C=C/c2cccs2)cc1	28µM*
CC(C)(C)n1ncc2c(=O)n(CC(=O)N3CCCc4ccccc43)cnc21	-6%
CCOC(=O)N/N=C/c1ccccc1-c1cc(OC)ccc1OC	-7%
c1cncc(C(c2nnnn2C2CCCCC2)N2CCN3CCCC3C2)c1 (centres undefined)	-2%
O=C1C2=C(Nc3cc([N+](=O)[O-])ccc3N2)O[C@@H]1c1ccc([C@H]2OC3=C(Nc4ccc([N+](=O)[O-])cc4N3)C2=O)cc1	-8%
CC[N+](CC)(CC)CC[C@](O)(c1ccccc1)C1CCCCC1	-6%
O=C(CN(C(=O)Cn1nnc(-c2ccc(F)cc2)n1)C1CCCC1)NC1CCCC1	-9%
COc1ccc(OC)c(CNn2c(-c3cccc(C)c3)nc3ccccc3c2=O)c1	-7%
CCOC(=O)c1cnc(SCC(=O)Nc2ccc3c(c2)OCCO3)nc1N	-14%
CCC(C)(C)NC(=S)Nc1ccc(-c2nc3ccc(C)cc3s2)cc1	?
CN(C)C(=O)c1nc2ccccc2s1	-14%
COc1ccc(/C(N)=N/OC(=O)Cc2ccc(C)cc2)cc1OC	-2%
COc1ccccc1CC(=O)Nc1ccc2c(c1)CCC2	-5%
COc1cccc(CNC(=O)c2nnn(CC(=O)Nc3ccc(C)c(C)c3)c2N)c1	-11%
N#Cc1ccccc1NC(=O)Nc1cccs1	-6%
Cc1ccc(-c2csc3nc(C)n(-n4c(C)ccc4C)c(=O)c23)o1	?
CC(C)(C)OC(=O)N1CCN(c2ccc(NC(=O)Cn3nnc(-c4ccccc4)n3)cc2)CC1	5%
COC(=O)/C(=C1/Oc2ccc(C)cc2S1)C(F)(F)F	-9%
O=c1c2cccnc2[nH]c(=S)n1CCCN1CCN(c2ccc(F)cc2)CC1	-22%
CC(C)C(CCNC(=O)CN1C(=O)c2ccccc2C1=O)c1ccco1 (centres undefined)	-13%
O=C(Cc1ccc(F)cc1)c1ccc(O)cc1O	-9%
CCOCc1cnc(C)nc1NCC(=O)c1c(C)n(C)c2ccc(OC)cc12	-7%

Sorted by number of heavy atoms (largest number first): some entries from above
smiles	HPGD block
CC(C)(C)OC(=O)N1CCN(c2ccc(NC(=O)Cn3nnc(-c4ccccc4)n3)cc2)CC1	5%
O=C(CN(C(=O)Cn1nnc(-c2ccc(F)cc2)n1)C1CCCC1)NC1CCCC1	-9%
CCOC(=O)c1cnc(SCC(=O)Nc2ccc3c(c2)OCCO3)nc1N	-14%
CC(C)C(CCNC(=O)CN1C(=O)c2ccccc2C1=O)c1ccco1 (centres undefined)	-13%

Further compounds.
smiles	HPGD block
CCn1c2ccc(/C(C)=N\O)cc2c2cc(/C(C)=N\O)ccc21	2.8µM*
Nc1nc(SCc2ccccc2Cl)n[nH]1	-3%
Cc1cccc(NC(=O)Nc2ccc(C)cc2Br)c1	-6%
O=C(/C=C(\c1ccc(Cl)cc1)n1cncn1)c1ccc(Cl)cc1	-24%
COCCN(C(=O)c1ccco1)C(C(=O)NC1CCCC1)c1cccs1 (centres undefined)	0%
CCS(=O)(=O)N1CCN(c2cccc(C)c2C)CC1	0%
O=C(Nc1ccon1)c1cc2c(s1)CCCC2	28µM*
CCn1ncc(/C=N/NC(=O)c2ccc3c(c2)OCO3)c1C	-11%
N#CCC(CNc1ncc(C(F)(F)F)cc1Cl)OC(=O)c1cccc(C(F)(F)F)c1 (centres undefined)	?
COc1ccc(Cl)cc1C(=O)NNC(=S)NC(=O)c1cc(-c2ccc(Cl)cc2)nc2ccccc12	-10%
Cc1cccc(Nc2nnc(SCc3cn4ccsc4n3)s2)c1	-20%
CCN1CCN(Cc2c(O)ccc3c(=O)c(-c4ccc(OC)c(OC)c4)c(C)oc23)CC1	?
Cc1cc(Oc2nnnn2-c2ccccc2)ccc1Cl	-12%
Cn1c(=O)c2c(nc(SCC(=O)N3CCc4ccccc4C3)n2C)n(C)c1=O	-10%
COc1ccc(NC(=O)C23CC4CC(C2)CC(n2cnc(Br)n2)(C4)C3)cc1OC	-2%
CSCCC(N=Cc1c(O)n(-c2ccc(F)cc2)c(=O)[nH]c1=O)C(=O)O (centres undefined)	-21%
CC(C)CN1C(=O)NC(NC(=O)c2cccs2)(C(F)(F)F)C1=O (centres undefined)	-4%
O=Cc1ccc(O)c(O)c1	-7%
CCOC(=O)CNc1c(-c2ccccc2)nc2ccc(Cl)cn12	?
Cc1noc2nc(-c3cccs3)cc(-c3nnc4n3CCCCC4)c12	?
CC1C/C(=N\NC(=S)NCc2ccccc2)CC(C)(C)C1 (centres undefined)	-15%
Cc1ccc2nc(SC(C)C(=O)NC3CCCc4ccccc43)[nH]c2c1 (centres undefined)	-5%
CC1=C(C#N)C(Nc2cc(C)ccn2)(C(F)(F)F)C(=O)N1 (centres undefined)	0%
CC1CC(=O)N(CC(=O)NCc2ccc3c(c2)OCO3)c2ccccc2S1 (centres undefined)	-6%
CCN1CCN(C(=O)C(NS(=O)(=O)c2ccc3nc(C)sc3c2)C(C)C)CC1 (centres undefined)	-1%

Looked up above:
Value for CC1=C(C#N)C(Nc2cc(C)ccn2)(C(F)(F)F)C(=O)N1 (centres undefined) under HPGD block: 0%
Value for Cc1cccc(NC(=O)Nc2ccc(C)cc2Br)c1 under HPGD block: -6%

Next part.
smiles	HPGD block
CCCCN=C1N/C(=C\c2ccco2)C(=O)N1c1ccccc1	-6%
COc1cccc(Cn2c(N)c(C#N)c3nc4ccccc4nc32)c1OC	?
C=CC(C1=CC(=O)C(OC)=CC1=O)c1ccc(O)cc1 (centres undefined)	-25%
Cc1ccc(N=Nc2c(N)n(-c3ccccc3)[nH]c2=O)cc1	3%
COc1ccc(CN=C(Nc2ccccc2)SC2CC(=O)N(C)C2=O)cc1 (centres undefined)	-3%
Cc1[nH]c(=O)[nH]c1CN1CCCCC1	-12%
O=C(COC(=O)c1cccc(S(=O)(=O)NCc2ccccc2)c1)Nc1ccccc1OC(F)F	1%
CC(C)COc1ccc(C(=O)Nc2scc(-c3ccc(Cl)cc3Cl)c2C(N)=O)cc1	?
O=C(COC(=O)C(Cc1ccccc1)NC(=O)c1ccc(Cl)cc1)c1ccc(Cl)cc1 (centres undefined)	-9%
COc1ccc(CCNc2oc(COc3ccccc3)nc2C#N)cc1	-31%
O=C(CSc1nc2ccccc2[nH]1)Nc1nc(-c2ccc(Br)cc2)cs1	1%
CCc1nnc(NC(=O)c2ccc(S(=O)(=O)N(CCOC)CCOC)cc2)o1	3%
COc1cc(OC)cc(C(=O)N(Cc2cc3cc(C)ccc3[nH]c2=O)C(C)C)c1	?
COc1ccc2ccccc2c1/C=N/NC(=O)CC1(C)OCCCO1	-22%
CCOC(=O)c1sc2ncnc(NCc3ccco3)c2c1C	?
CSCCC(NC=O)C(=O)NC(CC(C)C)C(=O)NC(Cc1ccccc1)C(=O)O (centres undefined)	-19%
CCN1C(=O)C(C(=O)NC(C)c2ccccc2)C2CC1(C)Oc1ccccc12 (centres undefined)	-3%
COc1cc(C(=O)NCc2nnc(SCC(=O)Nc3nc4ccccc4s3)o2)cc(OC)c1OC	-14%
CCn1cc(C(=O)OCC(=O)N(C)C2CCS(=O)(=O)C2)c(=O)c2ccc(C)nc21 (centres undefined)	-3%
CCCc1c(CC)c(=N)c2ccccc2n1C	-30%
O=C1c2ccccc2S(=O)(=O)N1CC1CC(c2ccc(Cl)cc2)=NO1 (centres undefined)	18µM*
CCCCCn1c(SC(C)C(C)=O)nc2c1c(=O)[nH]c(=O)n2C (centres undefined)	-8%
CC(=O)/C(=C\c1ccccc1F)C(=O)c1ccccc1	-10%
COc1cccc(NC(=O)c2nc3nc(C)cc(C(F)F)n3n2)c1	-2%
CC[N+](CC)(CC(=O)Nc1c(C)cccc1C)Cc1ccccc1	-8%

Fetched by structure from above:
smiles	HPGD block
CC1C/C(=N\NC(=S)NCc2ccccc2)CC(C)(C)C1 (centres undefined)	-15%
CC(C)COc1ccc(C(=O)Nc2scc(-c3ccc(Cl)cc3Cl)c2C(N)=O)cc1	?
c1cncc(C(c2nnnn2C2CCCCC2)N2CCN3CCCC3C2)c1 (centres undefined)	-2%

The listing continues:
smiles	HPGD block
O=C(COC(=O)Cc1ccc(Cl)cc1)Nc1cc(S(=O)(=O)N2CCOCC2)ccc1N1CCCC1	-8%
CC(C)(C)c1ccccc1NC(=S)NCc1ccccc1	-22%
CC(C)C(c1nnnn1Cc1ccco1)N1CCN(c2cccc(Cl)c2)CC1 (centres undefined)	-11%
CO/N=C(\N)c1ccc([N+](=O)[O-])cc1	-5%
c1ccc(CCC2=NCCn3cccc32)cc1	-27%
CCOc1ccccc1NC(=O)C1CC2CCCC(C1)C2=O (centres undefined)	5%
CCN(CC(=O)N1CCc2ccccc2C1)S(=O)(=O)c1ccc2ccccc2c1	-5%
CCCCn1c(CCNC(=O)c2cccs2)nc2ccccc21	?
Cc1ccc(-n2c(C)cc(/C=N/NC(=O)CN(c3ccc(C)cc3C)S(C)(=O)=O)c2C)cc1	-15%
CCOC(=O)C1CCN(S(=O)(=O)c2cccc(-c3cn4cc(C)ccc4n3)c2)CC1	-20%
COc1cc(NS(=O)(=O)c2ccc(NC(=O)/C(=C\c3ccccc3OC)NC(=O)c3ccccc3)cc2)nc(OC)n1	-11%
COCC(=O)Nc1cccc(C(F)(F)F)c1	-15%
O=C(O)Cc1c[nH]c2ccc(F)cc12	-8%
CCc1cc(C(N)=S)ccn1	0%&-3%&0%
O=C(CSc1nc2ccccc2c(=O)n1CCC(=O)N1CCCCC1)NCc1ccccc1	-11%
CCCc1cc(=O)oc2cc(C)cc(OC(=O)c3ccco3)c12	3%
COc1ccc2c(c1)O[C@H](c1ccc3c(c1)OCO3)[C@@H](OC(=O)NCCc1ccc(OC)c(OC)c1)C2=O	-11%
O=C(Oc1cccnc1)c1ccco1	-3%
N#CC1=C(N)OC2=C(C(=O)CCC2)C1CCc1ccccc1 (centres undefined)	-16%
COc1ccc(COCCN2CCN(S(=O)(=O)c3ccc(C)cc3)CCC2=O)cc1	-14%&7%
CCOC(=O)C1CCN(C(=O)c2n[nH]c(=O)c3ccccc23)CC1	7%
CC(C)(C)CC(=O)Nc1nnc(-c2cccs2)s1	?
O=c1[nH]c(CSc2nnc(NCCCN3CCOCC3)s2)nc2cc(Cl)ccc12	-24%
COc1cc(OC)c(NC(=O)c2c(-c3ccccc3)noc2C)cc1Cl	?
